Bioassay records as filed in PubChem BioAssay.
GIRK2 act: activators of human GIRK2 potassium channels; calls only for hits at 25 µM; G protein-activated inward rectifier potassium channel 2 (Homo sapiens), P48051; HEK293-GIRK2 thallium flux, Thallos fluorescence; 63,000 tested, 0.05% active;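 active means among the strongest 0.2% of first-round signals and kept after retests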;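 further: first round at about 10 µM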
Target sequence (P48051 whole entry, looked up): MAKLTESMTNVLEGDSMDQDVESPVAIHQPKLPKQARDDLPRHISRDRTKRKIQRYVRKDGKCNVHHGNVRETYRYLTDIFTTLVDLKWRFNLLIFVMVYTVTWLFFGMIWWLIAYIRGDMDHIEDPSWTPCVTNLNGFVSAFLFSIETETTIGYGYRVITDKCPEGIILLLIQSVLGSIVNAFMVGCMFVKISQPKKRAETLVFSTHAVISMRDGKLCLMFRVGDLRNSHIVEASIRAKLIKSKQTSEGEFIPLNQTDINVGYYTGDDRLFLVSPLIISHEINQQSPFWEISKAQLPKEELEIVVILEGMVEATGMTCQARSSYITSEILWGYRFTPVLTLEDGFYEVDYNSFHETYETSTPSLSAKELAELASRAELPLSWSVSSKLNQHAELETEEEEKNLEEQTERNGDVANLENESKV
Calls only; i = inactive. The list is partial. The share of hits here may be higher or lower than overall.

GIRK2 act,compound
i,COc1ccc(OC)c(-c2cc(C(=O)NCc3cc(C)oc3C)n(C)n2)c1
i,O=C(NCc1cc(-c2ccncc2)n(C2CCCC2)n1)C1CC=CCC1 (centres undefined)
i,CC(=O)c1ccc(NC(=O)COc2cc(C)nc(N3CCCCCC3)n2)cc1
i,NC(=O)CSc1ncc(-c2cccc([N+](=O)[O-])c2)n1-c1cccc(C(F)(F)F)c1
i,COc1cccc2c(SCC(=O)Nc3ccc4c(c3)OCCO4)nccc12
i,O=C(Cn1ccc2ccccc21)NCC#CCN1CCc2ccccc2C1
i,Cc1ccc(S(=O)(=O)/C=C/C#N)cc1
i,O=C(CC1CCCC1)N1CCN(CC(O)c2cccs2)CC1 (centres undefined)
i,CN(C)CC1COCCN1C(=O)c1ccc(Cl)s1 (centres undefined)
i,CSc1cccc(-n2ccc(=O)c(-c3nc(-c4ccc(OC(C)C)cc4)no3)n2)c1
i,COc1ccc(-c2cnc(CNC(=O)C3CCCN(C)C3)[nH]2)cc1 (centres undefined)
i,CCN1C(=O)c2cc(NC(=O)NCc3ccc(OC)c(OC)c3)ccc2Oc2ccccc21
i,O=C(NC1CCN(c2ccc(-c3ccccc3Cl)nn2)CC1)c1ccccn1
i,O=C(CSc1n[nH]c(=O)c2cc(-c3cccs3)nn12)NCc1ccc(Cl)cc1
i,COCCN(Cc1cccs1)C(=O)c1nnn(-c2ccccc2)c1-c1ccccn1
i,COC(=O)c1sccc1S(=O)(=O)NC1CC(=O)N(C2CC2)C1 (centres undefined)
i,C=C(C)Cn1c(=O)c2c(nc3n(-c4ccccc4OCC)c(C)cn23)n(C)c1=O
i,CCOc1ccc(CN2C(=O)C(=O)c3cc(C)ccc32)cc1
i,COc1ccc(S(=O)(=O)N2CCCOC2CNC(=O)C(=O)NCc2cccc(OC)c2)cc1 (centres undefined)
i,COc1ccc(N/C=C(\C#N)c2nc(-c3ccc(OC)c(OC)c3)cs2)cc1OC
i,Cc1ccc2c(NC(=O)c3ccc4c(c3)OCCO4)noc2n1
i,CC(C)(C)c1ccc(NC(=O)CSc2nnc3ccc4ccccc4n23)cc1
i,Cc1cc(C(=O)Nc2nc(C(=O)N3CCN(c4cccc(C(F)(F)F)c4)CC3)co2)no1
i,COCCNC(=O)NCC1(O)CCCC1
i,NC(=O)c1ccccc1OCC#CCNC(=O)c1cccc(Cl)c1
i,COc1cc(NC(=O)Cn2nc3ccc(-c4ccc(Cl)cc4)nn3c2=O)cc(OC)c1
i,COc1ccc(-c2nc(S(=O)(=O)c3ccccc3)c(SC)o2)cc1
i,O=C(CCCc1ccccc1)Nc1ccc(-n2nnc(C(=O)NCC(F)(F)F)n2)cc1
i,O=C(c1ccc2ncsc2c1)N1CCC(Cn2ccnc2-c2ccccc2)CC1
i,Cc1cc(C)n(-c2nc(CCNC(=O)C3CC3)cs2)n1
i,O=C(Cc1ccc(F)cc1)N1CC(c2nc(-c3cccs3)no2)C1
i,COc1ccc(S(=O)(=O)N2CC(c3nc4ccc(C)cc4[nH]3)C2)cc1C
i,COc1c(C)c2c(c(O)c1C/C=C(\C)CCCC(C)C(=O)O)C(=O)OC2 (centres undefined)
i,O=C(CSc1nccc(-c2ccc3c(c2)OCO3)n1)c1ccc2c(c1)OCO2
i,Cc1cc(=O)n(CC(=O)N2CCc3ccccc32)c(N2CCCC2)n1
i,CSc1cccc(NC(=O)Cn2c(C)nc3c(c2=O)CN(Cc2ccccc2)CC3)c1
i,COc1ccc(C2CCN(C(=O)COc3ccc(Cl)cc3Cl)C2)cc1 (centres undefined)
i,CCSc1ncc(Cl)c(C(N)=O)n1
i,Cn1nnc2c(N3CCN(S(=O)(=O)c4ccc5ccccc5c4)CC3)ncnc21
i,O=C(C1CN(c2nc3ccc(F)cc3s2)C1)N1CCN(C(=O)C2CCCO2)CC1 (centres undefined)

Seven records drawn at random from the list so far, as already listed:
GIRK2 act,compound
i,O=C(CSc1nccc(-c2ccc3c(c2)OCO3)n1)c1ccc2c(c1)OCO2
i,CSc1cccc(NC(=O)Cn2c(C)nc3c(c2=O)CN(Cc2ccccc2)CC3)c1
i,O=C(C1CN(c2nc3ccc(F)cc3s2)C1)N1CCN(C(=O)C2CCCO2)CC1 (centres undefined)
i,COc1ccc(C2CCN(C(=O)COc3ccc(Cl)cc3Cl)C2)cc1 (centres undefined)
i,COc1ccc(-c2nc(S(=O)(=O)c3ccccc3)c(SC)o2)cc1
i,Cc1cc(C)n(-c2nc(CCNC(=O)C3CC3)cs2)n1
i,O=C(c1ccc2ncsc2c1)N1CCC(Cn2ccnc2-c2ccccc2)CC1

(list continues)
GIRK2 act,compound
i,Cc1cccc2sc(OC3CCN(C(=O)Cn4cnc5ccccc5c4=O)CC3)nc12
i,CCOC(=O)N1CCN(C(=O)CSc2nccc3c(OC)cccc23)CC1
i,Cn1c(C(F)(F)F)nn(CCNC(=O)C2(c3ccccc3)CCOCC2)c1=O
i,Cc1cc(NC(=O)c2c(F)cccc2F)n(-c2nc3c(cnn3-c3ccccc3)c(=O)[nH]2)n1
i,O=C(Cc1cccc2ccccc12)NCCCS(=O)(=O)N1CCc2ccccc2C1
i,COc1ccc(-n2nc(-c3nc(-c4cc(OC)cc(OC)c4)no3)c3ccccc3c2=O)cc1
i,CCCc1nnsc1C(=O)NCCn1nc(C2CC2)n(-c2ccccc2)c1=O
i,COc1ccc(NC(=O)Cn2c(C)cc(C)c(-c3nc(-c4ccccc4)no3)c2=O)c(OC)c1
i,COc1ccc(C)c2sc(=NC(=O)C3CC3)n(C)c12
i,COCCCn1c(C(=O)Nc2ccccc2OC)cc2c(=O)n3ccccc3nc21
i,CCOc1ccc(-c2noc(Cn3ccn4nc(-c5cccc6ccccc56)cc4c3=O)n2)cc1OC
i,C[C@@H]1O[C@@H](OC[C@H]2O[C@@H](Oc3c(-c4ccc(O)c(O)c4)oc4cc(O)cc(O)c4c3=O)[C@H](O)[C@@H](O)[C@@H]2O)[C@H](O)[C@H](O)[C@H]1O
i,CC(C)Oc1ccc(CNC(=O)c2cn(CC(O)c3ccccc3)nn2)cc1 (centres undefined)
i,COc1cc(NC(=O)Cn2cnc3c(-c4ccc(Cl)cc4)csc3c2=O)cc(OC)c1
i,N#C/C(C(=O)c1c[nH]c2ccccc12)=C1/SC(Cc2ccc(F)cc2)C(=O)N1c1ccccc1 (centres undefined)
i,CCOC(=O)C1CCCN(S(=O)(=O)c2cn(C)c(=O)n(C)c2=O)C1 (centres undefined)
i,O=C(c1cccc2ccccc12)N1CCN(C(=O)C2CC2c2cccs2)CC1 (centres undefined)
i,O=C(NCC(F)(F)F)C1CCN(C(=O)c2cc(-c3ccccc3)on2)CC1
i,NS(=O)(=O)c1cc(C(=O)O)c(NCc2ccco2)cc1Cl
i,CCCOC(=O)c1ccc(N/C=C(\C#N)c2nc(-c3cc4ccccc4oc3=O)cs2)cc1
i,COC(=O)c1ccc2c(=O)n(CCC(=O)N3CCN(c4ccccc4)CC3)c(=S)[nH]c2c1
i,CC(C)CCNC(=O)C1CCN(c2ncccc2S(=O)(=O)N2CCOCC2)CC1
i,CSc1ncc(Cl)c(C(=O)N2CCc3ccccc3C2)n1
i,COc1ccc2nc(N(CCCn3ccnc3)C(=O)c3cccc(OC)c3OC)sc2c1
i,Cc1oc(-c2ccc(OC(C)C)cc2)nc1CSc1nc(-c2ccncc2)cc(=O)[nH]1
i,Cc1c(C)n2c3c(=O)n(Cc4ccc(Br)cc4)c(=O)n(C)c3nc2n1C(C)C
i,CCOCC(=O)N1C2CCC1CN(Cc1ccccc1)C2
i,COCCn1c(=O)c2c(nc(-n3nc(C)c(C)c3C)n2Cc2ccccc2F)n(C)c1=O
i,Cc1c(C)n2c3c(=O)n(C/C=C/c4ccccc4)c(=O)n(C)c3nc2n1Cc1ccco1
i,Cc1nn(-c2ncc(NC(=O)c3ccco3)cn2)c(C)c1C
i,Nc1nc(SCC(=O)NCc2ccco2)n[nH]1
i,O=C(CSc1nc2ccccc2c(=O)n1Cc1ccc(C(=O)NC2CC2)cc1)NC1CCCCC1
i,COc1ccc(-c2[nH]c(-c3ccccc3)nc2SCC(=O)NCc2ccco2)cc1
i,CCCCCOc1ccccc1C(O)CC#CCCCC(=O)OC (centres undefined)
i,CSc1ccccc1NC(=O)C1CCN(c2ccc(=O)n(C)n2)CC1
i,CC(=O)c1ccc(NC(=O)C2CCCN(c3ccc(-c4cccs4)nn3)C2)cc1 (centres undefined)
i,O=C(NCCc1ccccc1)Nc1ccccc1NC(=O)c1ccccc1Cl
i,O=C(Nc1ccc(Cl)c(Cl)c1)N(Cc1ccoc1)Cc1cccs1
i,COc1ccc(CCC(=O)Nc2cc(OC)ncn2)cc1
i,COc1cccc2cc(C(=O)NCc3ccc(C(O)c4cccs4)s3)oc12 (centres undefined)
i,C#CCCNC(=O)NC(CC)CC
i,C/C(=C\c1ccccc1)C(=O)NC1CCN(c2ccc(-c3ccccc3F)nn2)C1 (centres undefined)
i,O=C(c1ccccc1C(F)(F)F)N(Cc1ccsc1)Cc1ccco1
i,O=S(=O)(Cc1ccccc1)N1C2CCC1COC2
i,CC(C)n1ccc(C(=O)Nc2ccc(N3CCOCC3)cc2)n1
i,CCCN1CCCc2cc(CCNC(=O)C(=O)Nc3cccc(C)c3)ccc21
i,Cc1cc(NC(=O)/C=C\c2ccccc2)n(-c2nc3c(cnn3-c3ccccc3)c(=O)[nH]2)n1
i,COc1ccc(Cl)cc1NC(=O)Cn1c(-c2ccccc2)nc2c(c1=O)CN(C)CC2
i,COCC(C)(O)CNC(=O)C(=O)NCc1cccs1 (centres undefined)
i,COc1ccc(C(=O)/C=C/c2cc(OC)c(OC)c(OC)c2)c(O)c1
i,CC1CCN(S(=O)(=O)c2ccc(NC(=O)c3ccncc3)cc2)CC1
i,COc1cccc2cc(-c3nnc(NC(=O)c4ccccc4)o3)oc12
i,Cc1ccc2c(Nc3ccc(CC(=O)O)cc3)c(C(=O)N3CCCCC3C)cnc2n1 (centres undefined)
i,CCOC(=O)c1ccc2nc(C)cc(NC(=O)c3ccco3)c2c1
i,CCN1CCN(C(c2cccc(Br)c2)c2sc3nc(C)nn3c2O)CC1 (centres undefined)
i,COc1cc(OC)c(NC(=O)Cn2nc3ccc(Sc4cccc(F)c4)nn3c2=O)cc1Cl
i,COc1ccccc1NC(=O)NCc1sc(C)nc1C
i,CCc1nc(OCC(=O)NCc2ccc3c(c2)OCO3)c2ccccc2n1
i,O=C(Oc1ccc2ccc(=O)oc2c1)c1ccc(Cl)cc1
i,Cc1ccc(CNC(=O)CSc2cc(N3CCCC(C)C3)ncn2)cc1 (centres undefined)

Reprinted from the part before: five compounds; new compounds follow.
GIRK2 act,compound
i,COc1cc(OC)c(NC(=O)Cn2nc3ccc(Sc4cccc(F)c4)nn3c2=O)cc1Cl
i,COc1ccccc1NC(=O)NCc1sc(C)nc1C
i,CCc1nc(OCC(=O)NCc2ccc3c(c2)OCO3)c2ccccc2n1
i,O=C(Oc1ccc2ccc(=O)oc2c1)c1ccc(Cl)cc1
i,Cc1ccc(CNC(=O)CSc2cc(N3CCCC(C)C3)ncn2)cc1 (centres undefined)
i,O=C(Nc1ccc(C(F)(F)F)cc1)C1CCCN(c2ccc(-c3ccco3)nn2)C1 (centres undefined)
i,Cc1ccc(C(=O)NC2CCC2)cc1-c1ccc(C(=O)NCC2CC2)cc1
i,Nc1ncn([C@@H]2O[C@H](CO)[C@@H](O)[C@H]2O)c(=O)n1
i,CCOC(=O)c1sc(NC(=O)CC2SC(N3CCOCC3)=NC2=O)cc1C (centres undefined)
i,O=C(NCc1ccc(F)c(Cl)c1)C1CCN(c2ncccc2S(=O)(=O)N2CCCCC2)CC1
i,CCCc1cnc2c(c1SCC(=O)Nc1ccc(C)c(Cl)c1)c(=O)n(C)c(=O)n2C
i,COc1ccccc1CNC(=O)Cc1c(C)nc(SCc2cccc(Cl)c2)[nH]c1=O
i,Cc1ccc(N2CCN(C(=O)Nc3ccc4c(c3)OCO4)CC2)nn1
i,CCOC(=O)CSc1nc2cc(OC)c(OC)cc2c2nc(-c3ccccc3)nn12
i,CC1=C(C(=O)Nc2ccccc2C)C(c2cccs2)n2c(s/c(=C/c3cn(C)nc3C)c2=O)=N1 (centres undefined)
i,CNC(=O)Cc1ccc(NS(=O)(=O)c2ccc(OC(F)(F)F)cc2)cc1
i,O=C(NC(c1ccccc1)c1ccccc1)N1CCC(Cn2cnc3ccccc32)CC1
i,O=C(NCc1ccc(C(O)c2cccs2)s1)c1c(F)cccc1Cl (centres undefined)
i,Cc1c(-c2noc(-c3ccc(N(C)C)cc3)n2)nnn1-c1ccc(F)cc1
i,CCCCn1c(C(=O)Nc2ccc3c(c2)OCCO3)cc2c(=O)n(C)c(=O)n(C)c21
i,Cc1ccc(N2CC(c3nc(C(C)C)no3)CC2=O)cc1C (centres undefined)
i,COc1ccc(C2CC3C4NN=C(CCC(=O)NC5CCCCC5)N4C=CN3N2)cc1 (centres undefined)
i,COCCN(Cc1ccoc1)C(=O)Nc1ccccc1F
i,CC(C)N(CC(O)COC1CC2CCC1(C)C2(C)C)C(C)C (centres undefined)
i,Cn1nnn(-c2ccc(NC(=O)c3ccccc3C(F)(F)F)cc2)c1=O
i,COc1ccc(NC(=O)NCCCn2ncccc2=O)c(OC)c1
i,CN1CCN(CC(O)COc2cccc3ccccc23)CC1 (centres undefined)
i,COc1cccc(CC(=O)NC2CC(O)C(CO)C2)c1 (centres undefined)
i,Cc1nc2sccn2c1-c1nnc(SCC(=O)NCCc2ccccc2)n1C
i,COc1ccc(NC(=O)CSc2ncnc3nc(N4CCCCC4)sc23)c(OC)c1
i,COc1cccc2cc(C(=O)NCc3cc(-c4ccncc4)n(C4CCCC4)n3)c(=O)oc12
i,COc1ccccc1COc1cc(NC(=O)CSc2nnnn2C)ncn1
